Screening data: PubChem BioAssay, several laboratories
PKD1 kinase inh = inhibitors of human PKD1 kinase, biochemical, fluorescence polarization; Serine/threonine-protein kinase D1 (Homo sapiens), Q15139; PKD1 kinase fluorescence polarization assay; inhibition, %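 (about 10 µM by stock and volumes)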; 200,000 tested, 0.056% active;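 active means inhibition of 50% or more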;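 further: controls were vehicle for no effect and a reference inhibitor for full effect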
Target sequence (Q15139 whole entry, looked up): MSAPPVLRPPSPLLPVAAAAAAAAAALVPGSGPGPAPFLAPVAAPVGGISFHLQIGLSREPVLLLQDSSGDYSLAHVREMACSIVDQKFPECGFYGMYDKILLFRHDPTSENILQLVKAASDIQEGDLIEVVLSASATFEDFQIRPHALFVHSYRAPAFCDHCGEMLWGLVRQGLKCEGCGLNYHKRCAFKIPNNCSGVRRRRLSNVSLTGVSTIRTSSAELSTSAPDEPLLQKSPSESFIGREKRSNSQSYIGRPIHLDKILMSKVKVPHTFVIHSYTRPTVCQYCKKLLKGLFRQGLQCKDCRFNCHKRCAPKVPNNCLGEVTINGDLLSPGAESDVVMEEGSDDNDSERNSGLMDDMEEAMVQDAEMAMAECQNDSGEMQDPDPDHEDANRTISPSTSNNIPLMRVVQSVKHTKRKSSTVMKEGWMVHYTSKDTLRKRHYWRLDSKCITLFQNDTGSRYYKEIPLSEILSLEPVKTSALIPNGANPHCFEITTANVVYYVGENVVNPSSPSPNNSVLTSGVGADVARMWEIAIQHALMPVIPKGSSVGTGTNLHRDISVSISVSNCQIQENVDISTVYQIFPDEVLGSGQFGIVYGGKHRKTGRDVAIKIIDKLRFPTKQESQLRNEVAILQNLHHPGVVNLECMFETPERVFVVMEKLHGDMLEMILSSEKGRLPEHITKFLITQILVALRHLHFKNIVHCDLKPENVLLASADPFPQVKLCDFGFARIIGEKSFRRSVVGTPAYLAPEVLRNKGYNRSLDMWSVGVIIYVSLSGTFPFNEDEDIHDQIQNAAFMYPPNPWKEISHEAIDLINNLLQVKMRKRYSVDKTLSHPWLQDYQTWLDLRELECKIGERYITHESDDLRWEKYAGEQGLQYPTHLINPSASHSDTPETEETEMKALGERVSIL
HSV augment = enhancers of HSV replication in host cells, fold increase, host cell viability | HSV replication augmentation in cells | maximum fold increase | 220,000 tested, 0.005% active;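 active means peak rise of 1.5-fold or more in the series; tested in PC3 cells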;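 further: first round at 10 µM; read as green reporter fluorescence; hits show the peak of a series up to 25 µM; 1 = signal of infected wells without compound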
GALR2 ag = GALR2 receptor agonists, primary screen, cell-based; Galanin receptor type 2 (Homo sapiens), O43603; GALR2-expressing cells, agonist activation read-out; activation, %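 (tested at 5 µM)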; 140,000 tested, 0.48% active; AID 803, 2007;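 active means above mean plus 3 SD of all compounds, about 5% in these data, not always enough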;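 further: 0% = vehicle buffer wells and 100% = reference agonist at full effect; tested in CHO reporter cells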
RGS16-Gao = modulators of RGS16 binding to Galphao, primary screen, biochemical, human proteins, multiplexed bead flow cytometry | bead-based flow cytometry RGS16-Galphao binding, fluorescence; actives lie on both sides | 220,000 tested, 0.38% active | binding response (% of control), % at 10 µM | AID 1441, 2008;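 active means below 25% or above 175%, edge rows of some plates excepted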;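 further: Galphao activated by GDP with aluminum fluoride before binding; 100% = wells without compound and 0% = beads without RGS; some results beyond the cut were filed as inactive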
INS promoter inh = inhibitors of insulin promoter-driven GFP, primary screen, imaging, TRM-6 cells (human fetal islet line), eGFP reporter, cell count | 130,000 tested, 0.9% active | AID 1273, 2008 | reporter expression induced with tamoxifen | inhibition, % at 2 µM;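 active means inhibition above the mean plus 3 SD, with well images judged a real hit on visual review, cut at about 60% in these data, passing the limit was not always enough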
INS promoter inh cell count = also measured in INS promoter inh; calls as there; normalized cell count, %; measured here: cell count, toxicity; reference of the scale not given here;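 cells exposed to compound for 48 h; stained nuclei by imaging scaled within each plate; lower means fewer cells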
HSV augment primary fold = further read-out of HSV augment, marked with its call; fold increase; compound at 10 µM; measured here: primary screen fold increase 10 uM; tested in PC3 cells;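 GFP signal in the first replicate; 1 = infected wells without compound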
Active calls of the source: *; i = inactive; . = no result given.

canonical_smiles,HSV augment,INS promoter inh cell count,GALR2 ag,RGS16-Gao,INS promoter inh,HSV augment primary fold,PKD1 kinase inh
COc1cccc(-c2n[nH]c3c2CCC3)c1,i,49,.,180,33,0.89,9
Cc1cc(C)nc(NC(=NCCc2c[nH]c3ccccc23)NC(=O)Nc2ccc(Cl)cc2)n1,i,113,-1.2,101,25,0.98,12
CC(=O)Nc1ccc(SCC(=O)c2cc(C)n(-c3ccccc3F)c2C)cc1,i,71,-0.8,110,27,1,-9
CC1CCCCC1NC(=O)COC(=O)c1ccc(N(C)C)cc1 (stereo not drawn),i,74,-1.2,96,27,0.98,1
Cc1cc(N2CCCC2)nc2ccc(NC(=S)NCCCN3CCC(C)CC3)cc12,i,150,.,105,18,0.63,-9
CCOC(=O)C1CN(S(=O)(=O)c2ccc(C)cc2)CCN1S(=O)(=O)c1ccc(C)cc1 (stereo not drawn),i,56,1.3,99,-387,0.74,-12
CCN(CC(=O)NCc1cccs1)C(=O)c1cc(S(=O)(=O)N2CCOCC2)ccc1C,i,83,0.0,101,-67,1.1,3
Nc1ccnn1Cc1ccc(Br)s1,i,.,-1.8,113,.,1,-4
O=C1COc2ccccc2N1Cc1ccccc1Cl,i,108,-1.8,99,-30,1.3,28
C#CCOCCOCCOCCNc1nc(N2CCN(C(=O)[C@H](Cc3cc4ccccc4[nH]3)n3cc([C@@H](N)C(C)CC)nn3)CC2)nc(N2CCN(C(=O)[C@H](CCCCN)n3cc([C@@H](N)CO)nn3)CC2)n1 (stereo partly drawn),.,.,.,93,.,.,-3
CCCOc1ccc(N2CC(C(=O)Nc3ccccn3)CC2=O)cc1 (stereo not drawn),i,93,-2.7,98,0,0.95,-1
COc1cc(S(=O)(=O)Nc2ccc(C)cc2)ccc1NC(=O)c1ccncc1,i,81,0.5,58,-23,0.94,-7
COc1ccc(C(=O)CCN2CCN(c3ccccc3F)CC2)cc1,i,62,.,99,-26,0.98,4
CCOC(=O)c1nnc(-c2ccccc2)nc1Sc1c(Cl)cccc1Cl,i,66,-2.6,102,-6,0.87,-2
N#C/C(=C\Nc1ccc2cn[nH]c2c1)c1nc(-c2ccccc2)cs1,i,71,.,95,27,1.1,-2
O=CN1CCN(C(=O)c2ccccc2Cl)CC1,.,84,0.1,45,-48,.,-1
O=C(NCc1cc(C(F)(F)F)cc(C(F)(F)F)c1)C1CC(c2cccc([N+](=O)[O-])c2)=NO1 (stereo not drawn),i,49,-0.3,137,4,0.78,2
C=C1C(O)C[C@H]2C(=C)CCC3[C@H](OC(=O)[C@]3(O)CO)[C@@H]12 (stereo partly drawn),i,82,0.0,96,-275,0.74,8
Cc1ccc(CNC(=O)CN(Cc2cccs2)C(=O)C2(C)CC(=O)N=C3C=CC=CN32)cc1 (stereo not drawn),i,100,-0.8,109,-4,1,5
COC(=O)COc1ccc(=O)n(-c2ccccc2)n1,i,67,-1.9,101,10,1,-11

In a second layout: 4 of the compounds above.
> COc1cc(S(=O)(=O)Nc2ccc(C)cc2)ccc1NC(=O)c1ccncc1
  HSV augment: i
  INS promoter inh cell count: 81
  GALR2 ag: 0.5
  RGS16-Gao: 58
  INS promoter inh: -23
  HSV augment primary fold: 0.94
  PKD1 kinase inh: -7
> COc1ccc(C(=O)CCN2CCN(c3ccccc3F)CC2)cc1
  HSV augment: i
  INS promoter inh cell count: 62
  GALR2 ag: .
  RGS16-Gao: 99
  INS promoter inh: -26
  HSV augment primary fold: 0.98
  PKD1 kinase inh: 4
> CCOC(=O)c1nnc(-c2ccccc2)nc1Sc1c(Cl)cccc1Cl
  HSV augment: i
  INS promoter inh cell count: 66
  GALR2 ag: -2.6
  RGS16-Gao: 102
  INS promoter inh: -6
  HSV augment primary fold: 0.87
  PKD1 kinase inh: -2
> N#C/C(=C\Nc1ccc2cn[nH]c2c1)c1nc(-c2ccccc2)cs1
  HSV augment: i
  INS promoter inh cell count: 71
  GALR2 ag: .
  RGS16-Gao: 95
  INS promoter inh: 27
  HSV augment primary fold: 1.1
  PKD1 kinase inh: -2

New compounds follow.
canonical_smiles,HSV augment,INS promoter inh cell count,GALR2 ag,RGS16-Gao,INS promoter inh,HSV augment primary fold,PKD1 kinase inh
Clc1cccc(Nc2nc(-c3ccncc3)nc3ccccc23)c1,i,.,.,106,.,0.73,.
C=CCNc1nc(Nc2ccccc2F)nc(OCC)n1,i,.,.,100,.,0.95,3
CCOC(=O)C1CCCc2c1[nH]c1c(C(=O)O)cccc21 (stereo not drawn),i,96,0.1,103,0,1.1,8
Cn1nnnc1SCCNCc1cccc2ccccc12,i,.,-2.2,100,.,1.2,4
CC(C)CCN1CCN(C2CCN(c3ccc4c(c3)OCO4)CC2)CC1CCO (stereo not drawn),i,.,.,91,.,1.1,3
Cc1ccc(-c2n[nH]c(=S)n2/N=C/c2cccs2)cc1,i,86,-0.7,97,4,1.2,1
O=C(NC(=S)N1CCN(c2ccc(F)cc2)CC1)C12CC3CC(CC(C3)C1)C2,i,101,-0.6,104,-34,1.1,-4
O=C(Nc1ccc(F)cc1)c1cccnc1N1CCCCC1,i,84,-1.4,98,29,1.1,-3
Cn1c(=O)cc(SCC(=O)NCCC2=CCCCC2)c2ccc(Cl)cc21,i,105,-0.7,78,45,1,0
Cc1ccccc1Cn1cnc2c([N+](=O)[O-])c(C)c(C)cc21,i,.,-1.4,99,.,0.79,-6
Cc1ccccc1Nc1nc(N)nc(CSc2ccc(F)cc2)n1,i,.,.,101,.,0.92,-1
Cc1ccc(-n2c(SCC(=O)N3CCOCC3)nnc2-c2cccnc2)cc1C,i,134,-1.0,104,-29,0.9,-11
C=CCNC(=S)NNC(=O)c1ccc(Br)o1,i,152,0.1,102,-114,0.87,-7
Cn1c(=O)c2[nH]c(-c3ccccc3)nc2n(C)c1=O,i,135,0.3,102,24,1.1,-8
C=CCNC(=S)NNC(=O)COc1ccc(Cl)cc1Cl,i,.,-0.4,103,.,0.83,-6
CCOc1ccc(NC(=S)N(CCN2CCOCC2)Cc2ccc3c(c2)CCCN3CC)cc1,i,101,.,101,-20,0.99,5
CCCCn1c(SCC(=O)c2ccc3c(c2)OCCO3)nnc1-c1ccoc1C,.,.,0.2,101,.,.,2
COc1ccc(C(O)c2nccn2Cc2ccccc2)cc1OC (stereo not drawn),i,46,-1.2,112,-20,0.93,1
CCCCNC(=O)Cn1c(-c2ccc(OC)cc2)noc1=O,i,.,-1.1,108,.,1.1,15
O=[N+]([O-])c1c(N2CCN(CCO)CC2)nc2ccccn12,i,.,.,100,.,0.83,.
CC(=O)C1=C(NC(=O)c2ccc(C(F)(F)F)cc2)C[C@@H]2[C@H]1C2(C)C,i,.,.,97,.,0.95,.
CCOC(=O)C(=O)c1c(C)cc2ccccn12,i,.,.,102,.,0.91,1
Cc1ccc2c(c1)N(CC(=O)NCc1cccnc1)C(=O)CO2,i,111,-0.9,104,-19,1,-5
CC(C)c1nnc(NC(=O)CCC(=O)NC2CCCc3ccccc32)s1 (stereo not drawn),i,.,-0.3,97,.,0.98,4
Cc1cc(NC(=O)c2n[nH]c(=O)c3ccccc23)ccc1Br,i,.,.,95,.,1.2,.
CC(NC(=O)COc1ccc([N+](=O)[O-])cc1)c1ccccc1 (stereo not drawn),i,108,.,102,-24,1.4,2
c1ccc(OCc2nn3c(-c4ccco4)nnc3s2)cc1,i,177,-1.6,98,18,0.82,-3
O=C(Nc1cc(C(F)(F)F)ccc1N1CCOCC1)c1n[nH]c(=O)c2ccccc12,i,103,-1.3,90,-19,0.83,-2
CC(=O)c1ccc(C(=O)N2CCc3c([nH]c4ccccc34)C2c2ccccn2)s1 (stereo not drawn),i,108,.,100,-11,1.1,0
CCCCNCCOCCSc1ccc(Cl)cc1,i,111,-0.8,104,-17,0.85,-8
CCc1ccc(C(=O)COC(=O)c2nn(C)c(=O)c3ccccc23)cc1,i,.,.,100,.,0.86,-9
O=C(NNC(=O)C1CC=CCC1C(=O)O)c1ccc(Cl)cc1 (stereo not drawn),i,.,.,98,.,0.99,2
O=C(COc1ccc([N+](=O)[O-])cc1)NCc1ccccc1,i,167,-2.4,101,-24,0.95,-5
Cn1nc(C(F)(F)F)cc1Oc1ncc(C(F)(F)F)cc1Cl,.,123,.,109,-14,.,-1
CCOC(=O)c1c(Cl)c(C)nn1-c1nc(OC)cc(OC)n1,i,.,-0.8,106,.,1.1,-3
O=C(NCCC1=CCCCC1)c1cc2c(s1)CS(=O)(=O)C2,i,157,-2.0,95,26,0.94,-20
CC(=O)c1cccc(NC(=O)COC(=O)COc2ccc(Cl)cc2)c1,i,132,.,102,40,0.98,-2
O=C(NNC(=O)c1c(F)cccc1F)c1sccc1-n1cccc1,i,.,.,96,.,1,-6
COCCCN(C(=S)NC(=O)C(C)(C)C)c1c(N)n(Cc2ccccc2)c(=O)[nH]c1=O,i,.,.,99,.,0.94,.
O=C(COC(=O)c1ccc(NS(=O)(=O)c2ccc(Br)s2)cc1)NC1CCCC1,i,169,.,99,-14,0.87,2
CCC(=O)N(Cc1cccs1)C1CCOC(C)(C)C1 (stereo not drawn),i,.,-0.1,121,.,1.1,1
CCOc1ccc(C(C)(N)C(=O)O)cc1 (stereo not drawn),i,159,-2.3,103,-14,1.1,-5
O=C1C2ON(c3ccccc3)C(c3ccccn3)C2C(=O)N1c1ccc(Br)cc1 (stereo not drawn),i,.,-0.4,106,.,1.1,-6
Cn1c(SCC(=O)c2ccccc2)nc2cccnc21,i,135,-1.8,93,10,0.78,-3
Cc1cc(C)c(NC(=O)CSc2nnc(Cc3cccn3C)n2-c2ccc(F)cc2)c(C)c1,i,74,-1.4,95,10,1.1,3
O=S(=O)(Nc1ccc(Cl)cc1)c1ccc(N2CCOCC2)c(NC(=S)NC2CC2)c1,i,69,.,55,-60,0.8,1
O=C(COc1ccccc1)Nc1ccncc1,i,.,.,107,.,0.67,6
C=CCN1C(=O)C(O)(CC(=O)c2ccccn2)c2ccccc21 (stereo not drawn),i,.,.,95,.,1.1,-7
NS(=O)(=O)c1cccc(NC(=O)COC(=O)c2cc(Cl)ccc2[N+](=O)[O-])c1,i,.,.,96,.,1,.
Cc1c(C(=O)O)sc2nc(SCC(=O)Nc3ccc(S(=O)(=O)NCCCC(=O)O)cc3)[nH]c(=O)c12,i,.,.,97,.,1,-5
N=C1C(c2ccccc2)=C(O)CN1CCO,i,.,.,91,.,1.1,-7
Clc1ccccc1CSC1=NCCN1,i,.,.,105,.,0.76,4
CSc1oc(-c2ccc(F)cc2)nc1S(=O)(=O)c1ccc(F)cc1,i,.,-1.5,101,.,0.47,3
COc1ccccc1NC(=O)CSc1nnc(CCC(=O)Nc2ccccc2F)n1C,i,.,.,105,.,0.97,.
C=CCOC(=O)/C(=C\C=C\c1ccccc1)NC(=O)c1ccccc1,i,106,-2.3,68,29,0.89,0
COc1ccc(OCCC(=O)OCC(=O)Nc2cccc(Br)c2)cc1,i,107,-1.0,102,-35,1.1,-4
Cc1c(C=O)c2ccccc2n1CC(=O)O,i,73,.,115,-25,0.92,2
COc1ccc(-n2c(SCC(=O)Nc3ccc4c(c3)OCO4)nnc2C(C)N2CCCCC2)cc1 (stereo not drawn),i,.,-1.1,103,.,1,1
O=C(CN(Cc1cccs1)C(=O)CN1C(=O)COc2ccccc21)NCc1ccco1,i,119,0.3,84,8,1.1,10
